Cruzain inh noDet: inhibitors of Trypanosoma cruzi cruzain without detergent. purified cruzain, Z-FR-AMC fluorescence, no detergent. 200,000 compounds, 2.3% hits. P25779. AID 1476. Potency, µM, for inactives: max response, negative = inhibition, actives largely listed as inhibitors;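 further: plate controls were enzyme without inhibitor for no effect and buffer without enzyme for full effect; nearly all actives have a fitted effect of over 40% in size; top concentration of the series not given in the record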
Target sequence (P25779 123-467 limits assumed): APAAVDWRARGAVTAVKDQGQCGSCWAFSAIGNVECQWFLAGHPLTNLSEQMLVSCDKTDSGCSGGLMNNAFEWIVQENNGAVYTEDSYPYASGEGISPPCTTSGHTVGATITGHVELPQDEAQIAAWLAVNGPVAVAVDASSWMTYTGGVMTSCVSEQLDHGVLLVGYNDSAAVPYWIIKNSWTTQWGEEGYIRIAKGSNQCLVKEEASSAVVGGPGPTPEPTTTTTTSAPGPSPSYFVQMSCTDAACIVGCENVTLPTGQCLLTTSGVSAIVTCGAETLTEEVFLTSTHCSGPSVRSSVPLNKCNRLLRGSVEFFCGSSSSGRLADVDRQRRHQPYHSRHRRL
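Detergent-free condition (0.00005% Triton X-100) in acetate buffer pH 5.5 with DTT. 1.5 nM enzyme and compound were pre-mixed 15 min, then 2 uM Z-FR-AMC substrate added; reaction progress from fluorescence change between first and third reads (60 s).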
Marburg entry inh: Marburg virus entry inhibition; Potency, µM (top dose mostly 37.8 µM), for inactives: top-dose activity change, negative = inhibition, hits mostly inhibitors; Marburg virus pseudotyped entry inhibition, cell reporter; control for the full effect not named in the record; about a third of the inactives were read at about 46 µM; 300,000 compounds, 1.8% hits; active = well fitted inhibition curve with a large enough effect; inconclusive = small, poorly fitted or top-dose-only effect, or effect the other way; inactive = flat fitted curve, though single readings scatter; tested in HEK293 cells; about a fifth of its hits are not listed in these tables; further: on the % scale 0 is the no-effect control and ±100 the full control effect; luciferase read-out
RE007 growth inh: less growth of the S. pombe RE007 Vpr strain; Potency, µM (series often up to 92.2 µM), for inactives: top-dose activity change, negative = less growth; S. pombe RE007 Vpr strain, BacTiter-Glo ATP luminescence, 24 h; control for the full effect not named in the record; AID 651644; 360,000 compounds, 0.21% hits; active = well fitted falling curve with a large enough effect; inconclusive = small, poorly fitted or top-dose-only effect; inactive = no such curve, though single readings can be large or run the other way;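 further: on the % scale 0 is the no-effect control and ±100 the full control effect; nearly all actives have a fitted effect of over 50% in size; the assay follows cell death caused by Vpr and the record does not say whether a fall means rescue or toxicity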
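Fission yeast strain RE007, carrying one chromosomally integrated HIV-1 vpr copy, was seeded at OD 0.01 in PMG+AL medium with 23 nL pinned compound. After 24 h at 30 °C and 99% humidity, viability was read by BacTiter-Glo luminescence.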
Cruzain Triton: cruzain (T. cruzi) inhibition with detergent; P25779; purified cruzain, Z-FR-AMC fluorescence, 0.01% Triton; Potency, µM, inactives show max response, negative = inhibition, actives largely listed as inhibitors; 200,000 compounds, 0.43% hits;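 further: plate controls were neutral wells for no effect and buffer without enzyme for full effect; nearly all actives have a fitted effect of over 40% in size; top concentration of the series not given in the record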
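In this qHTS format, compounds are incubated with 1.5 nM cruzain for 15 min at room temperature before 2 uM Z-FR-AMC is added. Release of AMC is followed at 360/450 nm, and progress is taken as the 60 s fluorescence difference.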
Lassa entry inh: blocks Lassa virus binding to or entry into cells | AID 540256 | Lassa virus pseudotype entry inhibition, cell reporter; control for the full effect not named in the record | 300,000 compounds, 1.2% hits | Potency, µM (highest dose often 37.9 µM), inactives show at the top dose activity change, negative = inhibition, actives largely listed as inhibitors; active means well fitted inhibition curve with a large enough effect; inconclusive means small, poorly fitted or top-dose-only effect, or effect the other way; inactive means flat fitted curve, though single readings scatter; tested in HEK293 cells; further: on the % scale 0 is the no-effect control and ±100 the full control effect; nearly all actives have a fitted effect of over 50% in size; luciferase read-out
StopGo reporter: FMDV 2A StopGo reporter, luciferase signal; Potency, µM (highest dose often 57.9 µM), for inactives: top-dose signal change, negative = less light; 410,000 compounds, 1.2% hits; human cells with a luciferase reporter of 2A StopGo recoding; control for the full effect not named in the record; AID 1159524; active = well fitted falling curve with a large enough effect; inconclusive = small, poorly fitted or top-dose-only effect; inactive = no such curve, though single readings can be large or run the other way; tested in HEK293T cells; further: on the % scale 0 is the no-effect control and ±100 the full control effect; nearly all actives have a fitted effect of over 45% in size; luciferase light after 4 h
NS1 inh: inhibitors of influenza NS1 protein function | S. cerevisiae slowed by influenza A NS1, growth recovery by OD600 | Potency, µM (titrated, usually from 46.1 µM), for the others: top-dose activity, positive = more growth | 270,000 compounds, 0.4% hits | AID 2326; active means well fitted rising curve with a large enough effect; inconclusive means small, poorly fitted or top-dose-only effect; inactive means no such curve, though single readings can be large or run the other way; further: nearly all actives have a fitted effect of over 50% in size
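Recovery from NS1-induced slow growth read by OD600 in budding yeast switched to galactose assay medium (pH 6.0, -URA) at 1:100 dilution. Compound 23 nl per well; the matching strain lacking NS1 serves as control.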
SARS PLP yeast: blocks SARS-CoV papain-like protease in a yeast assay. S. cerevisiae expressing SARS-CoV PLpro, growth rescue; control for the full effect not named in the record. 330,000 compounds, 0.19% hits. Potency, µM (series often up to 32.9 µM), without a hit: at the highest dose activity, positive = growth rescue; active means well fitted rising curve with a large enough effect; inconclusive means small, poorly fitted or top-dose-only effect; inactive means no such curve, though single readings can be large or run the other way; further: 0% is about no effect; nearly all actives have a fitted effect of over 55% in size; growth read by luminescence after 48 h
The depositor's hits bear a star; ? = inconclusive; . = no result given; & = joins results of further samples; [ ] = remark or other dose. Unless noted, the call rests on the fitted dose curve; in most records, active means well fitted curve in the direction sought with a large enough effect; inconclusive means small, poorly fitted or top-dose-only effect, or another doubt; inactive means no such curve, though single readings can be large; an effect the other way counts as inactive or inconclusive. Potency means the concentration at half of the fitted maximal effect.

Every second line gives: Cruzain inh noDet	Marburg entry inh	RE007 growth inh	Cruzain Triton	Lassa entry inh	StopGo reporter	NS1 inh	SARS PLP yeast
- C#CCOCCOCCOCCNc1nc(N2CCN(C(=O)Cn3cc(CCO)nn3)CC2)nc(N2CCN(C(=O)[C@H](C(C)C)n3cc(CCO)nn3)CC2)n1
 : 11.4%	17.5%	5.8%	0.3%	13.2%	-11.3%	-14.1%	-10.3%
- Cc1ccc(C)c(NC(=O)CSc2nnc(CNC(=O)c3ccco3)n2C)c1
 : .	3.6%[46.1 µM]	1.5%	.	0.9%[46.1 µM]	-23.9%	6.4%	4.3%
- O=C(CCC1CCCCC1)Nc1nncs1
 : .	2.0%	14.1%	.	27.4%	-8.1%	6.5%	-6.4%
- O=C(CN1C(=O)C2CC=CCC2C1=O)NC1CCCc2ccccc21 (stereo not given)
 : -1.5%	-17.3%	-11.8%	0.7%	-2.5%	-11.1%	0.9%	-2.3%
- CC(=O)Nc1ccc(NC(=O)c2ccccc2Sc2ccc([N+](=O)[O-])cc2Cl)cc1
 : 6.8%	?	9.5%	-5.6%	1.6%	-22.6%	-26.2%	?
- Cc1cc2nc(SC(C)C(=O)O)[nH]c2cc1C (stereo not given)
 : 1.6%	?	0.1%	7.2%	-0.3%	24.2%	-3.7%	11.9%
- O=C(c1cccc(Cl)c1)N(Cc1cccs1)C1CCS(=O)(=O)C1 (stereo not given)
 : -1.7%	-1.4%	-0.3%	-0.1%	-3.3%	-22.9%	5.5%	?
- CN1CCN(CC(=O)Nc2sc3c(c2C#N)CCC(C(C)(C)C)C3)CC1 (stereo not given)
 : 3.3%	.	.	0.0%	.	.	-38.7%	-8.2%
- COC(=O)Cc1c(O)ccn(CCc2ccccc2)c1=O
 : .	15.9%[46.1 µM]	-6.9%	.	17.4%	-14.5%	3.8%	1.2%
- Brc1c(CSc2nc3ccccc3s2)nc2ncccn12
 : -5.6%	?	9.4%	-8.7%	11.0%	6.7%	-4.1%	-48.4%
- COc1ccc(-n2nnnc2SCC(=O)N(C)C2CCS(=O)(=O)C2)cc1 (stereo not given)
 : .	4.7%	-2.2%	.	16.2%	-0.1%	.	1.2%
- COc1ccc(Nc2nc(-c3cccnc3)nc3ccccc23)cn1
 : .	?	5.1%	.	?	?	-18.5%	2.0%
- Cc1c(CCC(=O)N2CCC[C@H]2C(=O)O)c(=O)oc2cc3oc4c(c3cc12)CCCC4
 : .	.	5.1%	.	.	0.0%	-19.6%	0.6%
- c1csc(-c2nc3nc4ccccc4nc3n2Cc2ccc3c(c2)OCO3)c1
 : ?	?	3.0%	0.7%	?	14.3%	-14.1%	-9.5%
- O=C(CCNS(=O)(=O)c1ccccc1)NCCCSc1ccccc1
 : .	15.0%	0.2%	.	-1.8%	-7.0%	-14.9%	-3.4%
- CCCC(=O)Nc1cccc(C(=O)Nc2nccs2)c1
 : 16.4%	12.9%	13.9%	0.0%	-2.4%	-1.2%	-4.0%	-1.9%
- CCS(=O)(=O)NCC(c1ccco1)N1CCN(c2ccccc2F)CC1 (stereo not given)
 : 16.2%	-15.8%	-0.1%	-2.0%	0.9%	?	2.7%	-16.2%
- O=C(c1ccco1)N1CCN(C(c2ccccn2)c2nnnn2C2CCCC2)CC1 (stereo not given)
 : -11.9%	1.8%	4.0%	0.9%	20.6%	.	-5.6%	-10.5%
- COC(=O)C1=C(C)N(Cc2ccccc2)C(=NCCN2CCOCC2)N[C@H]1CCc1ccccc1
 : .	.	1.7%	.	.	-7.5%	7.1%	-13.3%&7.2%
- CCc1ccc(N2CC(O)(c3cccs3)[N+]3=C2SCCC3)cc1 (stereo not given)
 : .	.	10.3%	.	?	?	.	0.6%
- Cc1cc(C)c(-n2c(SCCS(=O)(=O)c3ccc(F)cc3)n[nH]c2=O)c(C)c1
 : .	?	-0.5%	.	?	-24.8%	2.4%	0.2%
- COC(=O)c1ccc(CNC(=O)c2nc(Cn3nc(C)c(Br)c3C)no2)cc1
 : ?	?	.	-1.9%	-2.1%[46.1 µM]	-1.5%	.	.
- O=C(c1cnsn1)N1CCC(CO)(Cc2ccc(Cl)cc2)CC1
 : .	?	3.7%	.	-0.3%	?	2.4%	-2.3%
- COc1ccc(-c2noc(-c3ccccc3C(=O)Nc3cccnc3)n2)cc1
 : -19.2%	?	6.2%	-3.2%	-23.3%	?	-8.2%	-2.2%
- CCOC(=O)C1=C(c2ccccc2)N=c2s/c(=C\c3cccc(O)c3)c(=O)n2C1c1cccs1 (stereo not given)
 : -4.1%	?	0.8%	-4.0%	16.4µM*	.	-47.0%	-1.1%
- CCc1ccccc1NC(=O)N[C@H](C(=O)O)C(C)C
 : 7.3%	2.9%	-3.1%	-2.1%	20.2%	-7.4%	9.8%	5.4%
- CCn1c(Cc2ccccc2)nnc1SCC(=O)Nc1nc(C)c(C)s1
 : ?	17.0%	-1.7%	-0.2%	-14.0%	-9.3%	6.0%	0.2%
- Cc1ccc(OCCC(=O)OCC(=O)Nc2ccc(Cl)cn2)cc1
 : -7.6%	1.1%	-27.5%	-3.3%	-4.1%	-13.7%	-61.4%	9.3%
- Cn1c(=O)oc2cc(S(=O)(=O)NCCC(=O)NC3CCCc4ccccc43)ccc21 (stereo not given)
 : -0.8%	-9.5%	-9.0%	-0.4%	5.4%	-11.9%	5.1%	1.2%
- CC(C)CN(C(=O)CN(C)C(=O)Cc1ccccc1Cl)c1c(N)n(CC(C)C)c(=O)[nH]c1=O
 : .	?	2.4%	.	?	-14.7%	24.5%	2.7%

Only RE007 growth inh, Lassa entry inh and Cruzain inh noDet, for six of the compounds above:
SMILES	RE007 growth inh	Lassa entry inh	Cruzain inh noDet
CCn1c(Cc2ccccc2)nnc1SCC(=O)Nc1nc(C)c(C)s1	-1.7%	-14.0%	?
O=C(c1ccco1)N1CCN(C(c2ccccn2)c2nnnn2C2CCCC2)CC1 (stereo not given)	4.0%	20.6%	-11.9%
CCCC(=O)Nc1cccc(C(=O)Nc2nccs2)c1	13.9%	-2.4%	16.4%
CCc1ccc(N2CC(O)(c3cccs3)[N+]3=C2SCCC3)cc1 (stereo not given)	10.3%	?	.
CCc1ccccc1NC(=O)N[C@H](C(=O)O)C(C)C	-3.1%	20.2%	7.3%
CC(C)CN(C(=O)CN(C)C(=O)Cc1ccccc1Cl)c1c(N)n(CC(C)C)c(=O)[nH]c1=O	2.4%	?	.

Single records, from the list above. Screens in order: Cruzain inh noDet | Marburg entry inh | RE007 growth inh | Cruzain Triton | Lassa entry inh | StopGo reporter | NS1 inh | SARS PLP yeast
Results for CCn1c(Cc2ccccc2)nnc1SCC(=O)Nc1nc(C)c(C)s1 : ? | 17.0% | -1.7% | -0.2% | -14.0% | -9.3% | 6.0% | 0.2%
Results for CCOC(=O)C1=C(c2ccccc2)N=c2s/c(=C\c3cccc(O)c3)c(=O)n2C1c1cccs1 (stereo not given) : -4.1% | ? | 0.8% | -4.0% | 16.4µM* | . | -47.0% | -1.1%

More structures:
Every second line gives: Cruzain inh noDet	Marburg entry inh	RE007 growth inh	Cruzain Triton	Lassa entry inh	StopGo reporter	NS1 inh	SARS PLP yeast
- CCOC(=O)c1cc2c(=O)n3ccccc3nc2n(CC(C)C)c1=NC(=O)c1c(-c2c(F)cccc2Cl)noc1C
 : -5.0%&20.9%	14.1%[46.1 µM]	-28.9%	-0.4%&-8.7%	?	0.0%&-21.9%	?	11.4%
- O=C(O)CCC1(C(=O)O)CCC(=O)c2ccccc21 (stereo not given)
 : .	-13.4%	-11.2%	.	4.3%	-4.6%	.	.
- COc1ccc(C(=O)/C=C/Nc2cccc(O)c2)cc1
 : -1.5%	3.1%	-11.2%[3.69 µM]	-9.7%	22.6%	0.0%	-105.9%	-41.1%
- O=C(O)COc1ccccc1-c1nc(-c2ccccc2)c(-c2ccccc2)[nH]1
 : .	.	5.2%	.	.	-19.9%	-12.1%	-2.2%
- COc1cccc(NC(=O)c2ccccc2-c2nc(-c3ccc(F)cc3)no2)c1
 : -1.4%	?	10.9%	-2.9%	-2.6%	-11.7%	-4.1%	-1.2%
- O=C(NC1(C(F)(F)F)C(=O)Nc2c1c(=O)[nH]c(=O)n2-c1ccccc1)c1cccnc1 (stereo not given)
 : -2.9%	?	-3.2%	1.1%	5.1%	18.6%	-0.3%	2.0%
- CCOc1ccc(NC(=O)CSc2nc(-c3ccccc3)c3cc(OCC)ccc3n2)cc1
 : -7.3%	-28.0%[46.1 µM]	.	2.9%	-2.2%[46.1 µM]	-3.2%	.	.
- O=C(OCc1cc2ccccc2[nH]c1=O)c1ccc([N+](=O)[O-])cc1
 : .	.	8.6%	.	.	-8.2%	2.7%	1.9%
- COc1cc(C2C(=O)N(C3CCCCC3)CC(=O)N2Cc2ccc(C)cc2)ccc1OC(C)C (stereo not given)
 : -7.2%	.	.	1.4%	?	-17.2%	.	.
- COc1ccc(OCC(=O)NNC(=O)c2c(-c3ccccc3Cl)noc2C)cc1
 : .	?	4.5%	.	24.9%[46.1 µM]	-9.9%	0.5%	0.5%
- CC1=C(C(=O)OCC2CCCO2)C(c2ccc(F)cc2)NC(=O)N1 (stereo not given)
 : .	-11.6%	17.3%	.	19.3%[46.1 µM]	-16.1%	-1.7%	?
- CC1Oc2ccccc2C(=O)N(CC(=O)c2ccc3c(c2)OCCO3)C1=O (stereo not given)
 : .	.	6.5%	.	.	34.6%[activator]	9.4%	-3.6%
- Cc1ccccc1S(=O)(=O)Cc1ccc(C(=O)NCCN(CC(C)C)CC(C)C)o1
 : .	?	-14.2%	.	?	2.6%	-2.2%	-2.0%
- COc1ccc(NC(=O)CCc2nnc3n(CC(C)C)c(=O)c4ccccc4n23)cc1OC
 : -2.9%	0.7%[46.1 µM]	.	-0.1%	.	5.0%	.	.

Screens as filed in PubChem.
